GIV-Gai inh = inhibitors of GIV GBA-motif binding to rat Galpha-i3. percent of control (FP), % (concentration not given with the values). Galpha-i3/FITC-GIV peptide fluorescence polarization, 90 min; hits give low values; scaled: aluminum fluoride 0%, vehicle 100%. P08753. hit rate 0.42% among 210,000;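 active = replicate mean at 85% of control or lower, very high polarization wells dropped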;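 also: wells of about 15 µL received 100 nL stock; the first replicate is given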
Target sequence (P08753 whole entry, looked up): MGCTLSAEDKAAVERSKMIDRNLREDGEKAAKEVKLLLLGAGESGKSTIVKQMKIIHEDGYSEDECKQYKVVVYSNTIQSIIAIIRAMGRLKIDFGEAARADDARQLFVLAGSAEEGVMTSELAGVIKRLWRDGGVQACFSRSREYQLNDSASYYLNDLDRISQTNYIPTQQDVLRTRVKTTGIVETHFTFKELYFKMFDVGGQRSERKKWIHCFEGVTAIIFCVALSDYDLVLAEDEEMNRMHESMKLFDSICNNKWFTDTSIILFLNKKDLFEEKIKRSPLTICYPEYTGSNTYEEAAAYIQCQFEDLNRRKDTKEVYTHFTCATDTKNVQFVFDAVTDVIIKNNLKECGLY
The depositor's hits bear a star. Some of the compounds tested (hit frequency here may not be typical).

SMILES | GIV-Gai inh
O=C(NCc1ccc(F)cc1)c1cncc(-c2ccc(F)cc2)c1 | 100.1
CCCCNC(=O)C1CCCN(c2ncnc3c2oc2ccccc23)C1 (configuration not stated) | 108.4
COc1ccccc1/C=C1/C(=O)N(c2cc(C)cc(C)c2)C(c2cccc([N+](=O)[O-])c2)S1(=O)=O (configuration not stated) | 106.6
Cn1c(SCC(N)=O)nnc1-c1cc2ccccc2o1 | 98.6
CC1(C)CC(=O)C2=C(C1)NC1=C(C(=O)CC(C)(C)C1)C2c1ccc([N+](=O)[O-])cc1 | 113.1
O=C1C2N=NN(c3ccc(F)cc3)C2C(=O)N1c1cccc(Cl)c1 (configuration not stated) | 104.9
Cc1cccc(NC(=O)c2ccc3nnc(SCC(=O)Nc4ccc(C)cc4C)n3c2)c1 | 105.5
Cc1ncc(-c2ccc(S(=O)(=O)NC3CCCC3)s2)o1 | 110.8
CCCCOc1ccc(CN2CCCC2c2cc(C)on2)cc1 (configuration not stated) | 103.4
COC(=O)c1ccc(NC(=O)c2ccc(=O)n(Cc3ccc(Cl)cc3)c2)cc1 | 104.9
COC(=O)CNC(=O)N1CCN(Cc2nc3cccnc3n2-c2ccccc2)CC1 | 108.6
COCCNC(=O)c1ccc(Cn2c(SCC(=O)c3ccccc3)nc3ccc(Br)cc3c2=O)cc1 | 105.9
Cc1cccc(NC(=O)Nc2ccc(SCc3nnc(-c4ccccc4)o3)cc2)c1 | 95.9
Cc1ccc(-c2cc(N3CCN(C(=O)c4ccc(F)c(Cl)c4)CC3)ncn2)cc1 | 106.6
O=C(CSc1nc2[nH]ncc2c(=O)n1-c1ccc(Br)cc1)Nc1ccccc1C(F)(F)F | 104.9
COc1ccc(NC(=O)Cn2nc3c4sccc4ncn3c2=O)cc1 | 96.4
NS(=O)(=O)c1ccc(CCNc2ncnc3c2c(-c2ccccc2)cn3-c2ccc(Br)cc2)cc1 | 110.2
CCCCN1C2=NCCN2c2ccccc21 | 97.8
COc1ccccc1Nc1ncnc2sc(C(=O)O)c(C)c12 | 114.1
CCc1ccc(CNC(=O)C2CCN(c3ncnc4c3oc3ccccc34)CC2)cc1 | 100.8
c1ccc(-c2nc3cc(-c4noc(C5CC5)n4)ccc3o2)cc1 | 101.9
CCOC(=O)c1c(S(=O)(=O)N2CCC(C(=O)NCc3ccccn3)CC2)c(C)n(C)c1C | 104.7
O=C(Nc1cccc(F)c1)c1ccc(C2Nc3ccccc3S(=O)(=O)N2)cc1 (configuration not stated) | 100.4
Cc1ccc(CN2CCCC2c2cc(C(C)C)on2)cc1C (configuration not stated) | 102.9
O=C(Nc1cccc(-c2nnc(-c3ccccc3)o2)c1)Nc1ccccc1Cl | 101.3
CCCCCCc1cnc(-c2ccc(OC(F)(F)F)cc2)nc1 | 110.0
Cc1cc(C2CCCN2C(=O)C(C)C)no1 (configuration not stated) | 100.3
O=C(c1ccccc1Cl)N1N=C(C(F)(F)F)CC1(O)c1ccc(F)cc1 (configuration not stated) | 112.7
COc1ccc(N2C(=O)NC(=O)/C(=C\c3cc(Cl)cc(OC)c3O)C2=O)cc1 | 103.3
O=C(NCc1ccc(F)cc1F)C1CCCN(c2ncnc3c2oc2ccccc23)C1 (configuration not stated) | 106.2
CCCCS(=O)(=O)NCCc1n[nH]c(Cc2ccccc2)n1 | 108.6
CCc1nc2ccc(C(=O)NCCCN3CCN(C4CCCCC4)CC3)cc2nc1CC | 102.8
O=C(C1CCN(c2ccc3cc(S(=O)(=O)N4CCCCC4)ccc3n2)CC1)N1CCc2ccccc21 | 100.7
Cc1nc(SCC(=O)NCCc2ccccc2)c2c3c(sc2n1)CCC3 | 96.4
O=C1Nc2cc(Cl)ccc2Oc2ccc(S(=O)(=O)N3CCSCC3)cc21 | 104.3
N#Cc1c(N)nc2sc(C(=O)c3ccccc3)c(N)c2c1-c1ccccc1 | 106.1
COc1ccc(N2C(=O)C3C(c4ccc(C)cc4)OC4(C(=O)c5ccccc5C4=O)C3C2=O)cc1 (configuration not stated) | 107.5
COc1ccc(CC(=O)N2CCCC(c3nc(-c4ccc(NC(C)=O)cc4)no3)C2)cc1Cl (configuration not stated) | 104.2
COC(=O)c1ccccc1NC(=O)CSc1n[nH]c(-c2ccccc2)n1 | 108.0
CC(=O)OC1=C2C(=Nc3c(c(=O)n(C)c(=O)n3C)C2c2cccc([N+](=O)[O-])c2)c2ccccc21 (configuration not stated) | 103.0
Cc1cccc(N/C(Sc2ccccc2)=C(/C(Cl)=C(Cl)Cl)[N+](=O)[O-])c1 | 109.4
Cc1ccc(C)c(NC(=O)C2C(=O)NC3(C)CC2c2ccccc2O3)c1 (configuration not stated) | 111.0
CCOc1ccc2c(c1)C(=C1SC(C(=O)OC)=C(C(=O)OC)S1)C(=S)C(C)(C)N2C(=O)c1ccc(Cl)c([N+](=O)[O-])c1 | 105.6
CC1CCn2c(nc3cc(C(=O)NCCN(C)C)ccc32)C1 (configuration not stated) | 106.5
O=C(Nc1ccc2c(c1)OCCO2)C1CCCN(C(=O)c2ccc(Cl)cc2)C1 (configuration not stated) | 104.5
CC(C)CC(=O)N1c2ccccc2NC2=C(C(=O)CC(C)(C)C2)C1c1ccccc1 (configuration not stated) | 99.0
O=C(NC1(C(=O)Nc2cccc(Cl)c2)CCCCC1)c1ccc(Cl)cc1 | 105.4
N#CC1=CN(c2cc(F)ccc2Cl)c2cc(F)ccc2S1(=O)=O | 107.0
O=C(CSc1nc2c(sc(=S)n2CC2CCCO2)c(=O)n1-c1ccc(F)cc1)Nc1nccs1 (configuration not stated) | 108.9
CCOc1cc(CN2CCCC2c2c(C)noc2C)ccc1OC(C)C (configuration not stated) | 107.3
Other compounds
SMILES | GIV-Gai inh
CCC(Sc1nc2n[nH]c(C)c2c(=N)n1-c1ccc(Br)cc1)C(=O)NCCOC (configuration not stated) | 105.1
Cc1noc(C)c1C1CCCN1Cc1cccnc1 (configuration not stated) | 101.5
Cc1ccc(C(=O)N/C(=C\c2ccco2)C(=O)N2CCN(c3ccccn3)CC2)cc1C | 106.0
CN(C)S(=O)(=O)c1ccc(-c2nnc(C(=O)NCc3cccnc3)o2)cc1 | 103.5
O=C(NC(C(=O)NN1S(=O)(=O)c2ccccc2S1(=O)=O)C12CC3CC(CC(C3)C1)C2)c1ccc([N+](=O)[O-])cc1 (configuration not stated) | 120.7
CC(C)Cn1c(=O)[nH]c2c(C(=O)N3CCC(C)CC3)snc2c1=O | 92.3
COCCn1c(SCc2nc(-c3ccc(Cl)cc3)no2)nc2cc3c(cc2c1=O)OCO3 | 107.1
CN(C)C(=O)c1ccc2c(c1)nc(CN1CCN(C(=O)c3ccc(Br)cc3)CC1)n2C | 112.5
CCCc1cnc2c(c1SC(C)CC)c(=O)n(C)c(=O)n2C (configuration not stated) | 102.7
Cc1ccc2c(c1)C(C)CC(C)(C)N2C(=O)Nc1ccccc1 (configuration not stated) | 106.4
COc1ccc(C2N3CCc4ccccc4C3CN2S(=O)(=O)c2ccc(C)cc2)cc1 (configuration not stated) | 106.2
Cc1nc(CN2C(=O)COc3ccc(S(=O)(=O)N4CCC(C)CC4)cc32)no1 | 106.3
CCCN1C(=O)/C(=C2\SC(=S)N(NC(=O)c3ccc(C)cc3)C2=O)c2ccccc21 | 98.5
COc1cccc(-c2nc(-c3ccc(O)cc3)[nH]c2-c2cccc(OC)c2)c1 | 105.6
CN1CCN(CCNC(=O)CCC2CCCN(c3cc(NC4CC4)ncn3)C2)CC1 (configuration not stated) | 106.7
Cc1ccc(NC(=O)C2CCCN(S(=O)(=O)c3c(C)nn(CC(=O)N4CCc5ccccc54)c3C)C2)nc1 (configuration not stated) | 104.3
CCCCCn1c(SCc2ccncc2)nc2cc(C(=O)N3CCN(C(=O)OCC)CC3)ccc2c1=O | 106.3
CC1CCC(NC(=O)c2sc(N3CCCC3=O)nc2C(C)C)CC1 (configuration not stated) | 103.5
COc1cccc2c1N(C(=O)c1ccc(F)cc1)C(C)(C)c1ssc(=S)c1-2 | 97.7
O=C(CCCCCn1c(SCC(=O)c2ccc(Br)cc2)nc2ccccc2c1=O)NCc1ccco1 | 106.7
COc1ccc(C(c2c(C)[nH]n(-c3ccccc3)c2=O)c2c(C)[nH]n(-c3ccccc3)c2=O)cc1 | 90.6
Cc1nc2ccccc2c(=O)n1-c1ccc(NC(=O)c2cccc(N(C)C)c2)cc1 | 107.6
CCCN1CCc2nc(SCc3cc(C)ccc3C)[nH]c(=O)c2C1 | 98.8
CC(C)c1cc(C2CCCN2C(=O)c2ccn(C)n2)on1 (configuration not stated) | 97.3
CCn1c(N2CCC(C(=O)N3CCCCC3)CC2)cc(=O)n(C)c1=O | 99.9
Cc1ccc(C(=O)[C@@H]2[C@@H](c3ccccc3Cl)C(C#N)(C#N)[C@H]3C=Cc4ccccc4N23)cc1 | 120.5
Nc1c(C(=O)Nc2ccc(F)cc2)sc2nc3c(c(-c4cccs4)c12)CCC3 | 106.7
C=CCn1c(=O)c2sc(N(CC)CC)nc2n(CC(=O)Nc2ccc3c(c2)OCCO3)c1=O | 103.0
Cc1cccc(OCc2nc(-c3ccc(NC(=O)c4cccs4)cc3)no2)c1C | 101.6
COC(=O)C1=C(c2ccccc2)S/C(=C2/C(=S)C(C)(C)N(C(C)=O)c3c(C)cc(C)cc32)S1 | 102.3
CCn1c(=O)c(N2CCC(NC(=O)NCC3CCCO3)CC2)nc2cccnc21 (configuration not stated) | 99.1
Cc1ccc(C)c(N2CCN(S(=O)(=O)c3c(C)sc(C)c3-c3n[nH]c(C)c3C)CC2)c1 | 97.5
Cc1ccc(-c2csc(=Nc3ccc(F)cc3)n2CCc2ccc(S(N)(=O)=O)cc2)cc1C | 105.7
Cc1nc(N2CCCCC2)c2c(C)c(C(=O)N3CCC4(CC3)OCCO4)sc2n1 | 104.2
CCOC(=O)c1cnc2ccccc2c1Nc1ccccc1CC | 113.5
CC(=O)N1CCCc2ccc([N+](=O)[O-])cc21 | 113.8
CN(Cc1ccccc1)S(=O)(=O)c1ccc2c(c1)-c1oncc1CO2 | 100.1
O=C(CSc1nc(NCC2CCCO2)c2ccccc2n1)N1CCN(c2ccccc2)CC1 (configuration not stated) | 110.4
O=C(c1cc2nc(-c3ccc(Cl)c(Cl)c3)cc(C(F)(F)F)n2n1)N1CCOCC1 | 104.1
CCOc1ccc(Br)cc1S(=O)(=O)NCCOc1ccc(-c2ccccc2)nn1 | 100.2

Retrieved one by one from the entries so far, 5 records:
SMILES | GIV-Gai inh
CCOC(=O)c1cnc2ccccc2c1Nc1ccccc1CC | 113.5
O=C(c1cc2nc(-c3ccc(Cl)c(Cl)c3)cc(C(F)(F)F)n2n1)N1CCOCC1 | 104.1
CC(=O)N1CCCc2ccc([N+](=O)[O-])cc21 | 113.8
Cc1ccc(C)c(N2CCN(S(=O)(=O)c3c(C)sc(C)c3-c3n[nH]c(C)c3C)CC2)c1 | 97.5
CCn1c(=O)c(N2CCC(NC(=O)NCC3CCCO3)CC2)nc2cccnc21 (configuration not stated) | 99.1

(continued)
SMILES | GIV-Gai inh
CCC1=NN(C(=O)c2cccc(Cl)c2)C(O)(c2ccc(OC)cc2)C1 (configuration not stated) | 136.1
COC(=O)C1=C(C(=O)OC)SC(=C2C(=S)C(C)(C)N(C(=O)CN3C(=O)c4ccccc4C3=O)c3cc(C)ccc32)S1 | 100.8
CC(C)(C)NC(=O)Nc1cc(F)c2nc(N3CCOCC3)ccc2c1 | 109.9
COc1ccc(C2CC(=O)Nc3c2c(C)nn3-c2ccc3nnc(C)n3n2)cc1OC1CCCC1 (configuration not stated) | 100.3
Cc1cc2c(cc1C)C(c1ccccc1Br)CC(=O)N2 (configuration not stated) | 113.9
COc1cccc(NC(=O)N2CCN(C)c3ccccc32)c1 | 97.1
CC1(C)CC(=O)C2=C(C1)N(c1cc(C(F)(F)F)ccc1Cl)C(N)=C(C#N)C2c1cccnc1 (configuration not stated) | 103.3
C=CCN1C(=O)C(=O)/C(=C(/O)c2ccc(C)cc2)C1c1cccc(F)c1 (configuration not stated) | 111.9
Cc1ccc(C2C3C(=O)N(c4ccc(F)cc4)C(=O)C3N3CCCN23)cc1 (configuration not stated) | 110.9
COc1ccc(-c2cc(C(F)(F)F)n3ncc(C(=O)NCCc4c[nH]c5ccc(O)cc45)c3n2)cc1OC | 105.2
O=S(=O)(NC1CCCCCC1)c1ccc(-c2cnc(C3CCCC3)o2)s1 | 113.1
CCCCS(=O)(=O)N1CCC2(C1)Nc1cccnc1NC2=NC1CCCC1 (configuration not stated) | 102.5
CCN(CC)S(=O)(=O)c1ccc(C(=O)Nc2c3c(nn2-c2ccc(C)cc2C)CS(=O)(=O)C3)cc1 | 117.1
Cc1ccc(N=C2c3ccccc3-c3nc4ccccc4cc32)cc1 | 104.8
COc1nc2ccccc2nc1N1CCC(C(=O)Nc2ccc(Br)cc2C)CC1 | 101.6
O=C(NCc1c(-c2ccccc2)nc2n1CCS2)c1ccccc1F | 101.8
Cc1c(C(=O)Nc2c(F)cc(F)cc2Br)sc2ncn(CC(=O)N3CCCCC3)c(=O)c12 | 108.2
CCCCCC1(C)NC(=S)N(c2ccc(Cl)cc2)N1 (configuration not stated) | 107.0
CCC(C)NC(=O)C1CCN(c2cc(C)c3cc(NC(C)=O)ccc3n2)CC1 (configuration not stated) | 100.1
CC(C)c1csc(-c2csc(S(=O)(=O)N3CCN(c4ccc(F)cc4)CC3)c2)n1 | 99.9

Some of the entries so far, as labelled records.
> COc1nc2ccccc2nc1N1CCC(C(=O)Nc2ccc(Br)cc2C)CC1
  GIV-Gai inh = 101.6
> O=S(=O)(NC1CCCCCC1)c1ccc(-c2cnc(C3CCCC3)o2)s1
  GIV-Gai inh = 113.1
> CCCCCC1(C)NC(=S)N(c2ccc(Cl)cc2)N1 (configuration not stated)
  GIV-Gai inh = 107.0
> CCC(C)NC(=O)C1CCN(c2cc(C)c3cc(NC(C)=O)ccc3n2)CC1 (configuration not stated)
  GIV-Gai inh = 100.1
